Insulin prom inh = TRM-6 insulin promoter activity inhibition | TRM-6 cells (human fetal islet line), insulin promoter-eGFP reporter, imaging; reporter expression induced with tamoxifen | inhibition, % at 2 µM | actives 0.9% (n = 130,000);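 active = inhibition above the mean plus 3 SD, with well images judged a real hit on visual review, cut at about 60% in these data, passing the limit was not always enough; inconclusive = inhibition over the cutoff but images rejected on review; inactive = inhibition not above the cutoff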
HSV replic up = HSV replication enhancement | HSV replication augmentation in cells, fold increase | maximum fold increase | actives 0.005% (n = 220,000) | AID 1956;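 active = peak rise of 1.5-fold or more in the series; inconclusive = self-fluorescent or not available for retest; tested in PC3 cells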;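 also: first round at 10 µM; read as green reporter fluorescence; hits show the peak of a series up to 25 µM; 1 = signal of infected wells without compound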
PKD1 inh = inhibitors of human PKD1 kinase | PKD1 kinase fluorescence polarization assay | actives 0.056% (n = 200,000) | Q15139 | AID 797 | inhibition, %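 (about 10 µM by stock and volumes)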;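 active = inhibition of 50% or more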;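 also: controls were vehicle for no effect and a reference inhibitor for full effect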
Target sequence (Q15139 whole entry, looked up): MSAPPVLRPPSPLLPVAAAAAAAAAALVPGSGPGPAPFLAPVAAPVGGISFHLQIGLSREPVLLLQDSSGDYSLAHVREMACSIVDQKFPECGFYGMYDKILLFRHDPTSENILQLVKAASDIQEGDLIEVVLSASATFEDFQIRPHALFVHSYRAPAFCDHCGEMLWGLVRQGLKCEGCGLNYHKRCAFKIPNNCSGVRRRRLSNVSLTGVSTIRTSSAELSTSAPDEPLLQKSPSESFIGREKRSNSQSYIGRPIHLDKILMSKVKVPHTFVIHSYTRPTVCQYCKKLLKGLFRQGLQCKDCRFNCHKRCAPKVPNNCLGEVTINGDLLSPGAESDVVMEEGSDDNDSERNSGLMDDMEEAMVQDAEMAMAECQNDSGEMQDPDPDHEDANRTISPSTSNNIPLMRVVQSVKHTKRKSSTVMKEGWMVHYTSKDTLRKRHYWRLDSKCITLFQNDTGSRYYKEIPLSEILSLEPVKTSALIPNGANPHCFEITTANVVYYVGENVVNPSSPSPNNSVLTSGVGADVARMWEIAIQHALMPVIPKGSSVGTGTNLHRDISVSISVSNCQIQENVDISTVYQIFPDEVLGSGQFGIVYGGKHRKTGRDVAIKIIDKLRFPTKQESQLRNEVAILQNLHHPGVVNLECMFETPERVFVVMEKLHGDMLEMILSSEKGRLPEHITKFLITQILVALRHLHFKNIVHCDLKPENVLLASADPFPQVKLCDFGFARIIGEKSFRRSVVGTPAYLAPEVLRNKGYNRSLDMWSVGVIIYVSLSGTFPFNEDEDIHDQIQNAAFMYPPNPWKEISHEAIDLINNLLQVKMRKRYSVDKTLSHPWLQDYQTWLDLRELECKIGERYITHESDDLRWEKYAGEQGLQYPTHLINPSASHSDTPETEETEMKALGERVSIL
GALR2 ag = GALR2 (human) receptor agonism | O43603 | GALR2-expressing cells, agonist activation read-out | activation, %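 (tested at 5 µM)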 | actives 0.48% (n = 140,000);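 active = above mean plus 3 SD of all compounds, about 5% in these data, not always enough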;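 also: 0% = vehicle buffer wells and 100% = reference agonist at full effect; tested in CHO reporter cells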
RGS16-Gao HTS = regulators of human RGS16-Galphao interaction; actives 0.38% (n = 220,000); bead-based flow cytometry RGS16-Galphao binding, fluorescence; actives lie on both sides; binding response (% of control), % at 10 µM; O15492+P09471;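 active = below 25% or above 175%, edge rows of some plates excepted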;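 also: Galphao activated by GDP with aluminum fluoride before binding; 100% = wells without compound and 0% = beads without RGS; some results beyond the cut were filed as inactive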
Insulin prom inh cell count = second read-out of Insulin prom inh, no call of its own (marks repeat the call); normalized cell count, %; measured here: cell count, toxicity; reference of the scale not given here;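 cells exposed to compound for 48 h; stained nuclei by imaging scaled within each plate; lower means fewer cells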
HSV replic up primary fold = further read-out of HSV replic up, marked with its call; fold increase; compound at 10 µM; measured here: primary screen fold increase 10 uM; tested in PC3 cells;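 GFP signal in the first replicate; 1 = infected wells without compound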
* = called active by the depositor; i = inactive; ? = inconclusive; . = no result given; [ ] = another dose, or the depositor's remark.

Screens in order: Insulin prom inh	Insulin prom inh cell count	HSV replic up	HSV replic up primary fold	PKD1 inh	GALR2 ag	RGS16-Gao HTS
1: O=C(NC1CCCCC1)C(c1ccc2ncccc2c1)N(Cc1ccc2c(c1)OCO2)C(=O)c1cccs1 (centres undefined)
  30	107	i	0.87	-6	-1.6	103
2: CCCN(CCC)CCCNC(=S)Nc1ccc2nc(N3CCCC3)cc(C)c2c1
  .	.	i	0.72	-1	.	99
3: O=C(O)/C(=C/c1ccco1)c1ccccc1
  -24	59	i	1.9	-5	.	102
4: S=C(NCc1cccnc1)Nc1ccc(Oc2ccc(Cl)cc2)cc1
  .	.	i	0.93	.	.	99
5: O=C(CSc1ncc(-c2ccccc2)[nH]1)Nc1ccccc1F
  -25	130	i	1	-2	.	112
6: Cc1cc(NC(=O)Cn2c(=O)n(Cc3ccccc3)c(=O)c3ccccc32)no1
  .	.	.	.	-9	-1.6	103
7: CN(C)CCP(=O)(c1ccccc1)c1ccccc1
  .	.	i	0.66	5	.	102
8: Cc1cc(C)cc(-n2c(C)cc(/C=C3\C(=N)N4N=C(CC(C)C)SC4=NC3=O)c2C)c1
  .	.	i	1.1	4	0.8	99
9: O=C(CCCCCN1C(=O)CCC1=O)Nc1ccc2c(c1)OCCO2
  -286	79	i	0.95	0	-0.3	100
10: COc1ccc(-c2noc(=O)n2CC(=O)N2CCC(Cc3ccccc3)CC2)cc1
  .	.	i	0.84	3	.	102
11: COc1ccc(Br)cc1CNC(=O)CCc1nc(-c2ccccc2F)no1
  -100	132	i	0.84	-5	-0.5	101
12: COCc1cc(=O)n2[nH]c(-c3ccsc3-n3c(C)ccc3C)cc2n1
  -30	162	i	1.1	-8	-2.0	99
13: CCSc1cc(C2C(C(=O)OC)=C(C)NC3=C2C(=O)CCC3)c(C)o1 (centres undefined)
  29	144	i	1	-11	-1.6	64
14: Cc1cc(/C=N/NC(=O)C(=O)N2CCCC2)c(C)n1-c1cccc(Br)c1
  13	121	i	1.1	-22	-2.0	100
15: COc1ccc(C2=Nn3c(nnc3-c3ccccn3)SC2)cc1
  .	.	i	0.8	-2	-0.8	104
16: Cc1ccccc1SC1CCN(Cc2nc(C3CC3)no2)CC1
  33	87	i	1	-4	.	102
17: CCCOc1ccc2ccccc2c1/C=N/n1cnnc1
  -51	158	i	0.88	4	1.7	71
18: Cc1cc(C)cc(OCC(=O)Nc2ccc(S(=O)(=O)Nc3ccccn3)cc2)c1
  .	.	i	0.99	-3	.	105
19: COc1cc(S(=O)(=O)N2CCN(c3ccccc3)CC2)ccc1Cl
  .	.	i	0.85	-1	-2.6	102
20: COc1cccc(NC(=O)CC2SC(=Nc3ccccc3)NC2=O)c1 (centres undefined)
  39	66	.	.	-9	-1.7	62
21: CC(C)C(=O)NC(Nc1cccc([N+](=O)[O-])c1)C(Cl)(Cl)Cl (centres undefined)
  .	.	i	1	-6	.	106
22: OCC[n+]1ccc(/C=C/c2c[nH]c3ccccc23)cc1
  -103	74	?	.	2	-0.6	104
23: O=[N+]([O-])c1cccc(-c2csc(CS(=O)(=O)Cc3ccco3)n2)c1
  .	.	i	0.97	.	.	99
24: O=P(COCCCCCOCP(=O)(c1ccccc1)c1ccccc1)(c1ccccc1)c1ccccc1
  -131	49	i	0.92	3	.	97
25: CCCC(c1nnnn1C1CCCC1)N1CCN(c2ccccc2F)CC1 (centres undefined)
  -57	47	i	1.1	-4	-0.6	100
26: COc1ccc(C2(C(=O)NCCCN(C)C)CCOCC2)cc1
  .	.	i	0.79	-7	-1.9	103
27: O=C(COC(=O)C1CSC2(c3ccc(F)cc3)CCC(=O)N12)NC(=O)NC1CCCC1 (centres undefined)
  -50	76	i	0.96	5	.	104
28: Cc1cccc(C(=O)NNC(=O)/C=C/C(=O)O)c1
  29	125	.	.	-4	.	102
29: O=C(O)c1ccc(-n2c(-c3ccccc3)n[nH]c2=S)cc1
  3	37	i	1	-16	5.8	102
30: Cc1cccc(C)c1N(CC(=O)Nc1cccc(N(C)S(C)(=O)=O)c1)S(C)(=O)=O
  -22	107	i	1	2	-2.1	93
31: COc1ccc(NS(=O)(=O)c2cc(NC(=O)/C=C/c3cccs3)ccc2N2CCOCC2)cc1
  33	95	i	0.85	1	-0.8	99
32: CCc1ccccc1NC(=S)N(Cc1ccco1)C(C)c1cccs1 (centres undefined)
  -27	85	i	1.1	-2	.	99
33: CCS(=O)(=O)NCCc1csc(-c2ccc(OC)c(OC)c2)n1
  .	.	i	1.1	.	.	101
34: CC(=O)Nc1ccc(C(=O)N/N=C/c2ccncc2)cc1
  25	84	i	1	-6	.	94
35: Cc1ccc2c(c1)C1CN(C)CCC1N2C(=O)c1cccc(S(=O)(=O)N2CC(C)CC(C)C2)c1 (centres undefined)
  .	.	i	0.88	6	.	103
36: N#C/C(=C\c1ccc(-c2cccc(C(F)(F)F)c2)o1)C(=O)Nn1cnnc1
  .	.	.	.	-1	-1.9	102
37: COCCCC1CCN(C(=O)CCc2nnc(CCCCc3ccccc3)o2)CC1
  .	.	i	1.1	-4	.	100
38: Cc1nc(NC(=O)c2ccc(Cl)cc2)sc1-c1csc(Nc2cccc(F)c2)n1
  3	86	i	0.99	12	-0.7	62
39: Cc1ccc(NC(=O)C2CCCN(S(=O)(=O)c3c(C)noc3C)C2)nc1 (centres undefined)
  .	.	i	1	-2	-2.0	102
40: O=C(O)/C=C/c1ccc([N+](=O)[O-])o1
  .	.	i	0.88	-7	.	101
41: COC(=O)CC/C(O)=C1\C(=O)CC(C)(C)CC1=NCc1nc2ccccc2[nH]1
  .	.	i	0.87	-7	.	97
42: Cc1ccc(S(=O)(=O)NC(=O)COc2ccccc2C(N)=O)cc1
  27	138	i	1.1	0	-4.2	101
43: Cc1cccc2cc(/C=N/NC(=O)[C@H]3C[C@@H]3c3ccccc3)c(Cl)nc12
  .	.	i	0.95	.	.	102
44: COc1cccc(S(=O)(=O)N2CCOCC2)c1
  46	127	i	0.63	-1	-3.6	100
45: NS(=O)(=O)c1ccc(C(=O)Nc2ccc(-c3nc4cccnc4s3)cc2)cc1
  .	.	i	0.86	.	.	100

The last 5 entries of the section above open the next one:
Screens in order: Insulin prom inh	Insulin prom inh cell count	HSV replic up	HSV replic up primary fold	PKD1 inh	GALR2 ag	RGS16-Gao HTS
41: COC(=O)CC/C(O)=C1\C(=O)CC(C)(C)CC1=NCc1nc2ccccc2[nH]1
  .	.	i	0.87	-7	.	97
42: Cc1ccc(S(=O)(=O)NC(=O)COc2ccccc2C(N)=O)cc1
  27	138	i	1.1	0	-4.2	101
43: Cc1cccc2cc(/C=N/NC(=O)[C@H]3C[C@@H]3c3ccccc3)c(Cl)nc12
  .	.	i	0.95	.	.	102
44: COc1cccc(S(=O)(=O)N2CCOCC2)c1
  46	127	i	0.63	-1	-3.6	100
45: NS(=O)(=O)c1ccc(C(=O)Nc2ccc(-c3nc4cccnc4s3)cc2)cc1
  .	.	i	0.86	.	.	100
46: Cc1sc2ncnc(SCC(=O)NNC(=O)COc3cccc4ccccc34)c2c1C
  .	.	i	1.1	-7	-2.2	101
47: CC(C)C(=O)Nc1nnc(SCC(=O)NCc2cccs2)s1
  .	.	.	.	2	-2.1	101
48: O=C(c1ccc(F)cc1)C1CCN(C(=O)NCc2ccccc2)CC1
  -123	108	i	1	-11	-2.0	32
49: O=C(CSc1ccc(Cl)cc1)N1CCN(c2c(Cl)cccc2[N+](=O)[O-])CC1
  3	76	i	1	-15	-2.1	100
50: O=[N+]([O-])c1cccc(S(=O)(=O)N2CCCCCC2)c1
  -14	122	i	0.97	5	1.7	110
51: Cn1cc(CC(=O)N2CCN(c3ccccc3F)CC2)c2ccccc21
  .	.	i	0.96	1	-1.1	97
52: CN(C)c1ccc(C2CC(=O)OC3=C2C(=O)CC(C)(C)C3)cc1 (centres undefined)
  -17	173	i	0.94	-3	.	105
53: CCOC(=O)c1cc(NC(=O)c2cccnc2)cc(C(=O)OCC)c1
  56	103	i	0.9	-7	-0.6	102
54: CSc1nc2ccccc2s1
  50	74	i	0.99	-14	-1.1	69
55: O=C(CN(c1ccccc1F)S(=O)(=O)c1ccccc1)N1CCCCCC1
  17	78	i	0.81	-3	-1.5	112
56: CCOC(=O)C(=CNc1cc(C)ccc1C)C(=O)OCC
  22	128	.	.	-8	-0.1	101
57: COc1ccc(C(=O)NCC(C)CN(C)C)cc1 (centres undefined)
  .	.	i	1	3	-0.6	101
58: CCn1c(C)nc2cc(S(=O)(=O)N3CCCC3)ccc21
  .	.	i	0.98	-6	-1.8	99
59: CCN(C(=O)COC(=O)c1c(C)c(-c2ccccc2)nc2ccccc12)C1CCS(=O)(=O)C1 (centres undefined)
  .	.	i	0.85	.	.	96
60: Cc1c(NC(=S)NC(NC(=O)C(C)C)C(Cl)(Cl)Cl)c(=O)n(-c2ccccc2)n1C (centres undefined)
  .	.	i	1	2	-0.2	106
61: COc1cccc(-n2c(O)c(C=NCc3ccccn3)c3ccccc3c2=O)c1
  .	.	i	0.66	.	.	103
62: CCc1ccc2nc(/N=C(\N)NC(=O)c3ccccc3)nc(C)c2c1
  .	.	i	0.97	.	.	101
63: Oc1ccc(N=Nc2ccc3c(c2)OCCO3)c2cccnc12
  .	.	i	0.52	0	.	90
64: COc1ccc(Cl)cc1-c1nc(SCC(=O)N(C)C)n[nH]1
  .	.	i	1.3	-6	.	98
65: Cc1ccc(-c2nc(-c3cccnc3)no2)cc1
  0	78	i	0.91	-5	-1.5	87
66: O=C1c2ccccc2COc2ccc(O)cc21
  14	129	i	1.1	3	-2.4	98
67: Cc1cc2c(c(N3CCOCC3)n1)C(=O)OC2
  -64	126	i	0.85	-8	-1.1	95
68: O=C(NC(=O)N1CCCC1)c1csnn1
  .	.	i	0.88	.	.	99
69: CCOCCc1nnc(NC(=O)Cc2c(F)cccc2Cl)s1
  -15	176	i	0.91	9	.	104
70: Cc1ccc(Cn2nnc3c(=O)n(CC(=O)NCc4ccccc4)cnc32)cc1
  10	96	i	0.64	9	.	117
71: Cc1ccc(OCC(=O)Nc2cccc3c2CCCC3)cc1C
  -44	85	i	1	-14	-2.6	.
72: O=C(c1cn(-c2ccccc2)nc1-c1cccs1)N1CCN(c2ccccn2)CC1
  -24	195	i	0.83	1	-0.1	100
73: CCCNC(=O)COC(=O)c1ccccc1C(=O)c1ccc(Cl)c([N+](=O)[O-])c1
  .	.	i	0.61	-6	.	105
74: Cc1ccc(-c2csc(NC(=O)c3ccc(-c4ccccc4)cc3)n2)o1
  .	.	i	1.1	2	-1.9	56
75: Cc1ccc2c(CC(=O)N3CCN(c4ccccc4)CC3)coc2c1
  .	.	i	0.98	-1	.	102
76: CCOC(=O)C1=C(C)NC(=S)NC1/C=C/c1ccccc1 (centres undefined)
  .	.	i	0.97	-4	-0.6	94
77: CC(C)N1C(=O)CCC1C(=O)NCc1ccccc1Cl (centres undefined)
  -25	48	.	.	-8	-0.9	84
78: C/C(N)=C(/C#N)C(=O)COC(=O)c1cc2c(s1)CCCC2
  -7	185	.	.	-5	.	107
79: O=Cc1ccc2noc(-c3ccc(Cl)cc3)c2c1
  -57	117	i	0.99	3	0.0	98
80: Cc1ccc(/C=N/NC(=O)c2ccco2)cc1
  .	.	i	1	.	.	102
81: CCOC(=O)N1CCC(C(=O)Nc2ccc(OCC)cc2)CC1
  .	.	i	0.88	-7	-2.4	108
82: O=C(Nc1cccc(NC(=O)N2CCN(c3ccccc3)CC2)c1)N1CCN(c2ccccc2)CC1
  .	.	?	.	-15	-2.6	98
83: CCc1ccc(C(=O)CSc2ncn[nH]2)cc1
  -100	168	i	0.76	9	-1.1	94
84: Cc1cc(/C=C(\C#N)C(=O)Nc2ccccc2)c(C)n1-c1ccc(C(=O)O)cc1
  .	.	i	1.1	.	.	105
85: Cc1cc(C)c(S(=O)(=O)Nc2ccccc2C(=O)OCC(=O)NCc2ccccc2)c(C)c1
  .	.	i	0.94	1	.	99
86: CCC1S/C(=N/N=C/c2ccco2)N(Cc2ccc(F)cc2)C1=O (centres undefined)
  .	.	i	1	.	.	108
87: O=[N+]([O-])c1ccc(/C=C/C2=NN(c3ccccc3)C(c3ccco3)C2)cc1 (centres undefined)
  -285	132	?	.	9	-3.5	223*[activator]
88: COc1ccc(NC(=O)c2ccccc2S(=O)c2ccccc2C#N)cc1 (centres undefined)
  21	110	i	1	-10	.	97
89: N/C(=N\S(=O)(=O)c1ccccc1)c1ccc([N+](=O)[O-])cc1
  44	76	i	0.97	-11	-0.9	111
90: CSc1nnc(-c2ccc(S(=O)(=O)N3CCCC3)cc2)n1C
  27	95	i	0.98	0	-3.2	102
